PKM2 act – increases activity of human pyruvate kinase M2; purified PKM2, Kinase-Glo ATP luminescence, activation; response scale: 0% is enzyme alone, no compound; Potency, µM (doses to about 57.5 µM), inactives show at the top dose activation, actives largely listed as activators; hit rate 0.34% among 260,000; note: % is set by controls: 0 for no effect and ±100 for the full control effect; nearly all actives have a fitted effect of over 55% in size
Target sequence (P14618 whole entry, looked up): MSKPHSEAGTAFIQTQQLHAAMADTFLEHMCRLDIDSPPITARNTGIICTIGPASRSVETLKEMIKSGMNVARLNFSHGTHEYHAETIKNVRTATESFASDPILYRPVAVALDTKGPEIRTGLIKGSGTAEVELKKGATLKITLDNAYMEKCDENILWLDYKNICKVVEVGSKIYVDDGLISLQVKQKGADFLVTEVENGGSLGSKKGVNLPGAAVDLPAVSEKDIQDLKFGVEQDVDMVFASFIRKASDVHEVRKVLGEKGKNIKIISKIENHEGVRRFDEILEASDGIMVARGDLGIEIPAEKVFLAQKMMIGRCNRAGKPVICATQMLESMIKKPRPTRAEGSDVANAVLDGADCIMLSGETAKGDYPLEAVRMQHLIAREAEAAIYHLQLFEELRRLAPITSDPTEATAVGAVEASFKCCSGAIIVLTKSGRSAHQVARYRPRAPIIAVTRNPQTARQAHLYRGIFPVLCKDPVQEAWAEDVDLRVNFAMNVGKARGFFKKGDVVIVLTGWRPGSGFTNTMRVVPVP
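Kinase-Glo luminescence reports ATP generated from ADP (0.1 mM) and PEP (0.5 mM) by purified hPK-M2 after 1 h at room temperature, pH 7.2 imidazole buffer; intermediate enzyme activity allows detecting inhibitors and activators.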
Rab9 prom act – activates the Rab9 promoter | Huh7 Rab9 promoter-luciferase reporter, luminescence, 24 h | Potency, µM (titrated, usually from 9.22 µM), without a hit: at the top dose activation, negative = inhibition, actives largely listed as activators | hit rate 2.8% among 320,000 | AID 485297; note: % of control where 0% means no effect; nearly all actives have a fitted effect of over 60% in size
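Using Huh7 cells stably transfected with Rab9 promoter–luciferase, compounds were incubated 24 h at 37 °C, 5% CO2; luciferase luminescence was read 10 min after reagent addition.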
Gal4-VP16 FLuc – inhibits Gal4-VP16 luciferase reporter, ROR gamma counter-screen. hit rate 3.5% among 310,000. Potency, µM (series often up to 53.6 µM), for the others: top-dose activity, negative = inhibition, most hits filed as inhibitors. AID 2546. Drosophila S2 Gal4-VP16 UAS-luciferase, luminescence, 20 h;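 note: Gal4-VP16 expression switched on by copper sulfate through the metallothionein promoter; % is set by controls: 0 for no effect and ±100 for the full control effect; nearly all actives have a fitted effect of over 50% in size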
Mito fusion yeast – blocks mitochondrial division or promotes mitochondrial fusion | S. cerevisiae fusion-defective mutant growth rescue, CellTiterGlo 48 h | Potency, µM (highest dose often 46.1 µM), for the others: at the highest dose growth rescue (activation), actives largely listed as activators | hit rate 0.23% among 320,000 | AID 485298;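 note: % of control where 0% means no effect; nearly all actives have a fitted effect of over 45% in size; temperature-sensitive fusion mutants such as fzo1-1 at 37 °C on non-fermentable ethanol glycerol medium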
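Temperature-sensitive fusion-defective S. cerevisiae (e.g. fzo1-1, mgm1-5) were grown with compound in YPEG medium (3% ethanol, 3% glycerol) for 48 hours at 37C. Growth rescue was measured as viability by CellTiterGlo luminescence after 10 minutes at ambient.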
MBNL1-CUG inh – inhibitors of human MBNL1 binding to CUG repeat RNA; TR-FRET MBNL1-His/biotin-(CUG)12 binding, 665/545 ratio; hit rate 0.036% among 280,000; Potency, µM (titrated, usually from 57.5 µM), for inactives: top-dose activity change, negative = inhibition, actives largely listed as inhibitors; Q9NR56; active = well fitted inhibition curve with a large enough effect in the signal ratio, with a control signal flat, not every such curve was filed as active; inconclusive = small, poorly fitted or top-dose-only effect, or effect the other way, or a change in a side signal; inactive = no such curve, though single readings can be large or run the other way; the % refers to the signal ratio; note: % is set by controls: 0 for no effect and ±100 for the full control effect
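Compounds (final 92 nM to 58 uM) are added to His-tagged MBNL1 and biotin-(CUG)12, then terbium anti-His antibody and streptavidin-XL665 (5 nM final). After 60 min at room temperature, the 665/545 nm ratio is read.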
Menin MLL FP TR – displaces Texas Red mutant MLL peptide from human menin. Menin + Texas Red MLL mutant peptide, fluorescence polarization. Potency, µM (top dose mostly 61.6 µM), without a hit: at the highest dose FP activity change, negative = inhibition, usual class: inhibitors. hit rate 0.23% among 270,000. AID 1768; active = well fitted inhibition curve with a large enough effect in the polarisation, with a control signal flat, not every such curve was filed as active; inconclusive = small, poorly fitted or top-dose-only effect, or effect the other way, or a change in a side signal; inactive = no such curve, though single readings can be large or run the other way; the % refers to the polarisation; note: % of control where 0% means no effect; many of its hits are not listed in these tables
RORgamma inh – ROR gamma (mouse) transcription inhibition; P51450; Drosophila S2 Gal4-RORgamma UAS-luciferase reporter, 20 h; Potency, µM (highest dose often 53.6 µM), for inactives: at the highest dose activity change, negative = inhibition, hits mostly inhibitors; hit rate 5.4% among 310,000; AID 2551; note: % is set by controls: 0 for no effect and ±100 for the full control effect; nearly all actives have a fitted effect of over 60% in size
Target sequence (P51450 whole entry, looked up, the tested form may be a part): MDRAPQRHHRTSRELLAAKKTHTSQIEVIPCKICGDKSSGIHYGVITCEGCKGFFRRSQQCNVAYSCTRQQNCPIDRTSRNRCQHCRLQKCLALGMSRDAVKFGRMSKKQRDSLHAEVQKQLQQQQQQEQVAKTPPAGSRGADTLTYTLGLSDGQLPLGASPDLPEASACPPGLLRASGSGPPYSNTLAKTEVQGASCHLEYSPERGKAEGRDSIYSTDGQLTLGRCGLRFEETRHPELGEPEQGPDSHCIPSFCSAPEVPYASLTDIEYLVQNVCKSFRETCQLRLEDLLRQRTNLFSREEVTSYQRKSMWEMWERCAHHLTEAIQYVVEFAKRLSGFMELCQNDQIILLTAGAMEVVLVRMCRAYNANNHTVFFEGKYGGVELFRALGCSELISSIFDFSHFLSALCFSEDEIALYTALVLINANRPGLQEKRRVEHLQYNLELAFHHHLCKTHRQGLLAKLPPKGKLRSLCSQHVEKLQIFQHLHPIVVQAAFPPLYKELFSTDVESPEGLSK
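Drosophila Schneider cells stably carrying a metallothionein-driven Gal4 DBD–ROR gamma fusion and a UAS-Photinus luciferase reporter were exposed to compound for 1 hr, then induced with copper sulfate (700 uM final) for 20 hr at ambient temperature before luminescence reading.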
NPC1 promoter act – activates the NPC1 promoter. hit rate 2.4% among 320,000. AID 485313. Huh7 NPC1 promoter luciferase reporter, 24 h. Potency, µM (highest dose often 9.22 µM), for inactives: at the highest dose activation, usual class: activators;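 note: % of control where 0% means no effect; nearly all actives have a fitted effect of over 60% in size; reporter is driven by a mutant NPC1 promoter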
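Readout is luciferase luminescence, reflecting NPC1 promoter activation in stably transfected Huh7 cells after 24 h compound exposure at 37 °C in reduced-serum medium with 10% FBS.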
ELG1 repair inh – inhibitors of ELG1-dependent DNA repair in HEK293T cells | Potency, µM (titrated, usually from 46.1 µM), for inactives: at the highest dose activity change, negative = inhibition, usual class: inhibitors | hit rate 2.3% among 330,000 | AID 504467 | HEK293T ELG1-luciferase reporter, luminescence, 16 h; DNA damage induced by 5-fluorouridine; note: % is set by controls: 0 for no effect and ±100 for the full control effect; nearly all actives have a fitted effect of over 55% in size
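Overnight (16 hr) co-exposure of 2,000 cells/well to 5-fluorouridine and compound at 37 °C preceded detection. Luciferase was quantified via ONE-Glo luminescence; loss of signal denotes inhibition.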
An asterisk follows results filed as active; ? = inconclusive; · = no result given; & = joins results of further samples; ! = not confirmed by another sample; [ ] = remark or other dose. Unless noted, calls come from the whole dose curve; as a rule, active = well fitted curve in the direction sought with a large enough effect; inconclusive = small, poorly fitted or top-dose-only effect, or another doubt; inactive = no such curve, though single readings can be large; an effect the other way counts as inactive or inconclusive. Potency is the fitted concentration of half-maximal effect. Some of the compounds tested, so the mix of outcomes need not match the whole.

no.	mol	PKM2 act	Rab9 prom act	Gal4-VP16 FLuc	Mito fusion yeast	MBNL1-CUG inh
1	CCSc1nnc(NC(=O)CSc2nnc(Cc3cccn3C)n2-c2ccc(C)cc2)s1	4%	1%	5%	-2%	-6%
2	Cc1ccc(S(=O)(=O)Nc2nc(C)cc(NCCN)n2)cc1	4%	-1%	-6%	-1%	-3%
3	CSc1nc(N2CCOCC2)c2c3c(sc2n1)CCC3	0%	-9%	4%	2%	0%
4	O=C(/C=C/c1ccc(O)cc1)c1ccc(O)cc1O	1%	10%[46.1 µM]	?	16µM*!	3%
5	CC(=O)OCP(C)(=O)COC(C)=O	2%	-1%	0%	-1%	-7%
6	CCN(CC)CC#CCOC(=O)[C@@](O)(c1ccccc1)C1CCCCC1	·	·	-12%[17 µM]	·	·
7	O=S(=O)(NC1CCCCC1NCc1ccco1)c1ccc(Cl)cc1 (centres undefined)	-1%	-4%	2%	-2%	6%
8	CC(=O)Nc1cccc(NC(=O)CSc2nnc(Cc3cccn3C)n2-c2ccc(F)cc2)c1	-2%	-1%	-3%	4%	0%
9	COc1ccc(C2c3c(C)nn(-c4ccccc4)c3NC(=O)N2c2ccccc2)cc1 (centres undefined)	-3%	-1%	-7%	6%	-6%
10	Cc1sc2ncnc(N3CCN(c4ncccn4)CC3)c2c1C	-2%	0%	-2%	1%	-8%

no.	Menin MLL FP TR	RORgamma inh	NPC1 promoter act	ELG1 repair inh
1	-7%	16%	-2%	3%
2	-2%	-14%	2%	1%
3	·	-9%	-5%	-2%
4	51%[activator]	1.8µM*!	17%[46.1 µM]	?
5	0%	-3%	-2%	11%
6	-16%[24.8 µM]	-16%[16.9 µM]	·	·
7	-15%	1%	-1%	-3%
8	-6%	1%	-1%	4%
9	-7%	?	-2%	?
10	-11%	-23%	-4%	-10%

Filtered by structure: those above with a halogen
no.	mol	PKM2 act	Rab9 prom act	Gal4-VP16 FLuc	Mito fusion yeast	MBNL1-CUG inh
7	O=S(=O)(NC1CCCCC1NCc1ccco1)c1ccc(Cl)cc1 (centres undefined)	-1%	-4%	2%	-2%	6%
8	CC(=O)Nc1cccc(NC(=O)CSc2nnc(Cc3cccn3C)n2-c2ccc(F)cc2)c1	-2%	-1%	-3%	4%	0%

no.	Menin MLL FP TR	RORgamma inh	NPC1 promoter act	ELG1 repair inh
7	-15%	1%	-1%	-3%
8	-6%	1%	-1%	4%

Structures listed so far marked active in RORgamma inh:
no.	SMILES	PKM2 act	Rab9 prom act	MBNL1-CUG inh	Menin MLL FP TR	RORgamma inh	NPC1 promoter act
4	O=C(/C=C/c1ccc(O)cc1)c1ccc(O)cc1O	1%	10%[46.1 µM]	3%	51%[activator]	1.8µM*!	17%[46.1 µM]

Looked up above:
#8 @ RORgamma inh: 1%
#1 @ Rab9 prom act: 1%
#9 @ MBNL1-CUG inh: -6%
#4 @ PKM2 act: 1%
#10 @ Gal4-VP16 FLuc: -2%
#3 @ Mito fusion yeast: 2%
#7 @ ELG1 repair inh: -3%

Carrying on:
no.	mol	PKM2 act	Rab9 prom act	Gal4-VP16 FLuc	Mito fusion yeast	MBNL1-CUG inh
11	CCOCCCn1c(=N)c(C(=O)NCc2ccc3c(c2)OCO3)cc2c(=O)n3cccc(C)c3nc21	15%	-7%	-7%	-3%	?
12	CCOc1cc(C)c(Cl)cc1S(=O)(=O)N(C)C	-4%	-5%	1%	-5%	-3%
13	N#CC1=C(N)Oc2c(oc(CO)cc2=O)C12C(=O)Nc1ccc(Cl)cc12 (centres undefined)	2%	-6%	-4%	3%	3%
14	Cc1ccc(SCc2nc(-c3cccnc3)no2)cc1	3%	12%	-6%	0%	6%
15	N=C(N)c1ccc(/C=C/c2ccc(C(=N)N)cc2O)cc1	-5%	-3%	2%&3%	7%	?
16	CSc1ccc2c(c1)N(CCC1CCCCN1C)c1ccccc1S2 (centres undefined)	-3%	-43%[inhibitor][46.1 µM]	?	-65%&-18%[inhibitor]	-26%
17	COCCN(CCOC)C(=O)CCn1c(=O)oc2ccccc21	0%	-1%	1%	-2%	1%
18	CCN(C(=O)COc1cc(=O)n(CC)c2ccccc12)c1cc(Cl)ccc1OC	0%	4%	-1%	9%	11%
19	CCN(Cc1ccncc1)C(=O)C(CO)c1ccccc1 (centres undefined)	0%	3%[46.1 µM]	3%&-4%&2%	5%&4%	2%
20	O=C(N[C@@H](CO)[C@@H](O)c1ccc([N+](=O)[O-])cc1)C(Cl)Cl	·	·	-5%[17 µM]	·	·

no.	Menin MLL FP TR	RORgamma inh	NPC1 promoter act	ELG1 repair inh
11	-3%	1%	2%	?
12	-1%	-14%	1%	12%
13	-3%	25%	16%	-7%
14	-17%	17%	11%	13%
15	11%	2%&10%	-2%	-2%
16	?	?	-39%[inhibitor][46.1 µM]	?
17	10%	-25%	-2%	5%
18	-10%	-12%	-4%	21µM*
19	18%&-6%&-9%&42%	1%	-4%[46.1 µM]	16%
20	-19%[24.8 µM]	-27%[16.9 µM]	·	·

Complete entries, looked up by structure. Screens in order: PKM2 act	Rab9 prom act	Gal4-VP16 FLuc	Mito fusion yeast	MBNL1-CUG inh	Menin MLL FP TR	RORgamma inh	NPC1 promoter act	ELG1 repair inh
CCN(Cc1ccncc1)C(=O)C(CO)c1ccccc1 (centres undefined) is listed with 0%	3%[46.1 µM]	3%&-4%&2%	5%&4%	2%	18%&-6%&-9%&42%	1%	-4%[46.1 µM]	16%
COCCN(CCOC)C(=O)CCn1c(=O)oc2ccccc21 is listed with 0%	-1%	1%	-2%	1%	10%	-25%	-2%	5%
O=C(N[C@@H](CO)[C@@H](O)c1ccc([N+](=O)[O-])cc1)C(Cl)Cl is listed with ·	·	-5%[17 µM]	·	·	-19%[24.8 µM]	-27%[16.9 µM]	·	·
CC(=O)OCP(C)(=O)COC(C)=O is listed with 2%	-1%	0%	-1%	-7%	0%	-3%	-2%	11%
O=S(=O)(NC1CCCCC1NCc1ccco1)c1ccc(Cl)cc1 (centres undefined) is listed with -1%	-4%	2%	-2%	6%	-15%	1%	-1%	-3%

Carrying on.
no.	mol	PKM2 act	Rab9 prom act	Gal4-VP16 FLuc	Mito fusion yeast	MBNL1-CUG inh
21	CCOc1ccccc1C(=O)N(Cc1cccs1)C1CCS(=O)(=O)C1 (centres undefined)	-6%	6%	-1%	1%	-1%
22	COc1ccc(NC2CS(=O)(=O)CC2NCc2ccccc2)cc1 (centres undefined)	0%	4%	12%	1%	16%
23	O=S(=O)(c1cccc2nsnc12)N1CCN(c2ncccn2)CC1	7%	8%	16%[0.365 µM]	2%	?
24	CCC[C@@H]1C[C@@H](C(=O)NC(C(C)Cl)[C@H]2O[C@H](SC)[C@H](O)[C@@H](O)[C@H]2O)N(C)C1 (some centres undefined)	1%	-2%	-11%&-10%	-2%	7%
25	CSc1ccc(S(=O)(=O)NCc2ccccc2Cl)cc1	16%	-3%	-7%	22%	1%
26	COc1ccc(CCN2CCC(Nc3nc4ccccc4n3Cc3ccc(F)cc3)CC2)cc1	-9%	-5%	?	-2%	-12%
27	CN1CCN(CCC=C2c3ccccc3Sc3ccc(S(=O)(=O)N(C)C)cc32)CC1	·	-1%	?	-9%	·
28	Cc1oc(C(=O)Nc2ccc(O)cc2)cc1COc1ccccc1	3%	-9%	-12%	4%	13%
29	NCCc1nc(-c2ccccc2)cs1	-8%	-1%	3%	23%	·
30	Cc1sc(NC(=S)NC(=O)C(C)(C)C)c(C(N)=O)c1C	-1%	?	2%	1%	32%[activator]
31	COc1ccc(Nc2cc(C(=O)NC3CCCC3)c3ccccc3n2)c(OC)c1	1%	3%	-6%	-12%	1%
32	CC1=C(CC(=O)O)c2cc(F)ccc2/C1=C\c1ccc(S(C)=O)cc1 (centres undefined)	-11%	-10%[46.1 µM]	?	9%&1%	?
33	COc1ccc(Cl)cc1C(=O)NCCc1ccc(S(=O)(=O)NC(=O)NC2CCCCC2)cc1	6%	1%[46.1 µM]	-1%	-4%&-4%	-16%

no.	Menin MLL FP TR	RORgamma inh	NPC1 promoter act	ELG1 repair inh
21	3%	-26%	-1%	-3%
22	14%	-40%	-2%	8%
23	-9%	-17%	-1%	0%
24	0%&-6%	-11%&0%	-4%	-6%
25	-11%	12%	2%	10%
26	?	14µM*!	1%	-21%
27	?	?	-4%	18%
28	30%	-38%	0%	11%
29	2%	-14%	-1%	20%
30	-30%	-3%	?	?
31	0%	13%	-6%	-3%
32	3%	-6%	1%[46.1 µM]	15%
33	7%	?	7%[46.1 µM]	-12%

Assay outcomes: PubChem BioAssay, National Center for Advancing Translational Sciences (NCATS)
